Bioassay records deposited in PubChem by ICCB-Longwood Screening Facility, Harvard Medical School.
BmaI1: BmaI1 acyl-homoserine lactone synthase inhibition – biochemical, fluorescence intensity, with counterscreen (AID 720554). BmaI1 enzyme assay, fluorescence intensity; hits give high values; test concentration not given here; a few actives read low; strong numbers were not always called active. inhibition, %. 12,000 compounds, 0.4% hits;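 active = both replicates within 2 robust z-scores of the inhibited control and a quiet counterscreen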;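 also: 0% = uninhibited enzyme and 100% = inhibited control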
BmaI1 counterscreen: further read-out of BmaI1, marked with its call; inhibition, %; measured here: counterscreen; design of the counterscreen not given here;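 first of two replicates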
An asterisk follows results filed as active.

The line under a structure holds: BmaI1 | BmaI1 counterscreen
CC(C)c1ccc(C(C)NC(=O)C2=COCCO2)cc1 (centres undefined)
  10 | -2
CC(=S)Nc1ccc2c(c1)OCO2
  42 | 6
CCC(CC)NC(=O)COc1ccc(-c2nnco2)cc1
  3 | 1
Cc1cccc(/N=C/c2c(O)n(Cc3ccc4c(c3)OCO4)c(=O)c3ccccc23)n1
  6 | 1
O=C(CSc1nc2nn(-c3ccccc3)c(=O)c-2c2n1CCCCC2)Nc1ccc2c(c1)OCO2
  -2 | -8
Cc1ccc(C23CCC(=O)N2C(C(=O)NC2CC2)CS3)cc1 (centres undefined)
  14 | 10
CC(Sc1nnnn1C)c1ccccc1Cl (centres undefined)
  8 | 12
N#CCOC(=O)c1c2c(nc3ccccc13)CCCC2
  20 | 4
CCn1nnc2cc(C(=O)N(C3=NC(C)CS3)c3ccc(Cl)cc3)ccc21 (centres undefined)
  24 | 18
COc1ccccc1NC(=S)N(C)CCO
  46 | 0
CCOC(=O)C1=C(C)NC(C)=C(C(=O)OCC)C1C(=O)OCC(=O)N1CCCc2ccccc21
  5 | -3
O=C(CC1CCCC1)Nc1ccc(S(=O)(=O)C(F)F)cc1
  21 | 20
CCOc1ncccc1C(=O)N1CCSC1=NCc1ccccc1
  -3 | -3
COc1cc(-c2nnc(COC(=O)c3cccnc3SC)o2)cc(OC)c1OC
  13 | 8
COCC(C)n1c(C)cc(C(=O)COC(=O)[C@@H]2CCCN2C(=O)c2cccs2)c1C (some centres undefined)
  10 | 10
N#Cc1ccccc1CN1C(=O)c2cccc3cccc1c23
  -10 | 2
CCCCNc1nnc(SCc2nc3ccsc3c(=O)[nH]2)s1
  30 | 7
Cc1ccc(SC(C)C(=O)NC2CCCCC2)cc1 (centres undefined)
  18 | 17
Cc1csc(SCC(=O)Nc2cc(C(C)(C)C)nn2-c2ccccc2)n1
  12 | 1
CCC(CC)NC(=O)COc1cccc2c1OC(C)(C)C2
  12 | 15

Of the compounds above, 8 have a carbonyl joined to an NH by a bond outside any ring:
The line under a structure holds: BmaI1 | BmaI1 counterscreen
CC(C)c1ccc(C(C)NC(=O)C2=COCCO2)cc1 (centres undefined)
  10 | -2
CCC(CC)NC(=O)COc1ccc(-c2nnco2)cc1
  3 | 1
O=C(CSc1nc2nn(-c3ccccc3)c(=O)c-2c2n1CCCCC2)Nc1ccc2c(c1)OCO2
  -2 | -8
Cc1ccc(C23CCC(=O)N2C(C(=O)NC2CC2)CS3)cc1 (centres undefined)
  14 | 10
O=C(CC1CCCC1)Nc1ccc(S(=O)(=O)C(F)F)cc1
  21 | 20
Cc1ccc(SC(C)C(=O)NC2CCCCC2)cc1 (centres undefined)
  18 | 17
Cc1csc(SCC(=O)Nc2cc(C(C)(C)C)nn2-c2ccccc2)n1
  12 | 1
CCC(CC)NC(=O)COc1cccc2c1OC(C)(C)C2
  12 | 15

The main list resumes, repeating the two entries before the break.
The line under a structure holds: BmaI1 | BmaI1 counterscreen
Cc1csc(SCC(=O)Nc2cc(C(C)(C)C)nn2-c2ccccc2)n1
  12 | 1
CCC(CC)NC(=O)COc1cccc2c1OC(C)(C)C2
  12 | 15
NS(=O)(=O)c1cc2c(cc1Cl)NCNS2(=O)=O
  12 | 16
COC(=O)c1cc(CSc2nc3ccccc3[nH]2)oc1C
  18 | 12
O=C(Nc1cccnc1)/C(N=Nc1cccnc1)=C(\O)c1ccccc1
  9 | 18
Cc1ccc(S(=O)(=O)N(C)CC(=O)OCc2nnc(-c3ccccc3)o2)cc1
  -3 | -8
CC(Sc1nnnn1C)C(=O)Nc1ccccc1 (centres undefined)
  1 | -4
CS(=O)(=O)c1ccc(Cl)c(NC(=O)c2cncn2-c2ccc(F)cc2)c1
  22 | 21
O=c1c2c3n(nnc-2nn1-c1ccccc1)CCC3
  15 | 12
CN(C(=O)CSc1ccc(F)cc1)C1(C#N)CCCCC1
  10 | 2
O=C(CSc1nnc(-c2cccs2)o1)NCC1CCCCC1
  6 | 0
Cc1ccc(C)c(S(=O)(=O)N/N=C/c2ccc3c(c2)OCO3)c1
  14 | 6
O=C(CCc1ccc(S(=O)(=O)N2CCCCCC2)cc1)NC1=NCCS1
  17 | 13
CC(C(=O)Nc1ccc(S(N)(=O)=O)cc1)N(C)Cc1ccccc1F (centres undefined)
  10 | 3
COc1cc(/C=N/NC(=O)c2ccoc2C)ccc1OCC(=O)N1C(C)CCCC1C (centres undefined)
  11 | 14
CC(C)NCC(O)COc1cccc2ccccc12 (centres undefined)
  -5 | 5
CCCCN(C(=O)c1nc2nccc(C)n2n1)c1ccccc1
  8 | 11
c1csc(-c2nc(NC3=NCCCCC3)sc2-c2cccs2)c1
  2 | 2
O=C(COc1nc2ccccc2nc1N1CCOCC1)N1N=C(c2ccc(Cl)cc2)CC1c1ccco1 (centres undefined)
  11 | 6
COc1ccc(NC(=O)CN(C)C(=O)Cc2c[nH]c3ccccc23)cc1
  6 | 5
O=C(CSc1nnc(-c2cccs2)n1-c1ccccc1)OC1CCS(=O)(=O)C1 (centres undefined)
  18 | 10
O=C(Nc1nc2ccccc2[nH]1)C1CC(=O)N(CCc2ccccc2)C1 (centres undefined)
  8 | 17
O=C(c1ccc(N2CCCC2=O)cc1)N1CCc2ccccc2C1
  0 | 2
COc1ccc(CCNC(=S)N2CCCCC2C(N)=O)cc1 (centres undefined)
  14 | 7
O=C1CCN(S(=O)(=O)c2ccc(Cl)c(Cl)c2)CC1
  4 | -12
CC(C)CCNC(=O)CN1C(=O)C2CC=CCC2C1=O (centres undefined)
  6 | 4
NCc1ccc(C(F)(F)F)cc1
  7 | 5
O=C(NNc1ccccc1)C(F)(F)F
  54 | -1
Cc1ccc(S(=O)(=O)N(C)c2nc3ccccc3nc2NCCCN(C)C)cc1
  15 | 6
Cn1cnnc1Sc1ccc(Cl)cc1NC(=O)Cn1c(=O)cnc2ccccc21
  22 | 7
CS(=O)(=O)N1c2cccc3cccc(c23)S1(=O)=O
  16 | 9
Cc1nn(C2CCS(=O)(=O)C2)c(Cl)c1/C=C/C(=O)OCC(N)=O (centres undefined)
  1 | 6
CCN(Cc1ccccc1)C(=O)c1nn(C)c(=O)c2ccccc12
  26 | 16
O=CNc1cccc(O)c1
  18 | 10
CCC(C)NCC(=O)Nc1ccc2c(c1)c1ccccc1n2CC (centres undefined)
  19 | 9
CN(C)S(=O)(=O)c1cccc(CSc2nnnn2-c2ccccc2)c1
  8 | 16
CCc1ccc2c(CC(=O)N3CCN(S(=O)(=O)c4cccs4)CC3)coc2c1
  21 | 18
CCOC(=O)N1CCN(C(=O)CCc2nc3cc(Cl)ccc3n(Cc3ccccc3)c2=O)CC1
  14 | 0
COc1ccc(-c2cc(=O)c3c(OC)c(OC)c(OC)c(OC)c3o2)cc1OC
  16 | 34
CCCCn1nc(C(=O)N(C)CC(=O)Nc2ccc(F)c(F)c2F)ccc1=O
  0 | -4
CCN(CC)S(=O)(=O)c1ccc2c(c1)nc(CCC(=O)N1CCN(c3ccccc3)CC1)n2CC
  17 | 10
CC(=O)N1CCN(CC(=O)N(Cc2ccccc2)c2cccc(C)c2)CC1
  11 | 2
CCN(CC1COc2ccccc2O1)C(=O)C1CCN(C(=O)c2ccccc2C)CC1 (centres undefined)
  6 | 0
CCS(=O)(=O)N1CCc2cc(C(=O)COC(=O)c3cc(Cl)ccc3O)ccc21
  13 | 8
CCN(C(=O)CSc1nnc(-c2ccco2)n1Cc1ccccc1)C1=CCCC1
  21 | 11
CC(=O)NC(CC(=O)Nc1ccc(S(C)(=O)=O)cc1)c1ccccc1 (centres undefined)
  6 | -1
Cc1cc(C)c(C2=Nn3c(C)nnc3SC2C)cc1C (centres undefined)
  14 | 5
Cn1c(=S)[nH]c2cc(S(N)(=O)=O)ccc21
  36 | 12
CCOC(=O)c1ccc(-n2cnc3c2C(=O)c2ccccc2C3=O)cc1
  6 | -2
CCOc1cc(C(=O)OCC(=O)c2c(C)[nH]c3ccccc23)ccc1OCC(=O)N1CCOCC1
  8 | 4
O=C(CSc1nc2ccccc2n1CCc1ccccc1)NC1CCS(=O)(=O)C1 (centres undefined)
  0 | -10
C/C(=N\NC(=O)Cc1cccs1)c1ccc(S(=O)(=O)N2CCCC2)cc1
  8 | 5
Cc1cc(C(=O)CSc2nnc(Cc3ccccc3)o2)c(C)n1CC1CCCO1 (centres undefined)
  6 | 2
COC(=O)c1ccccc1S(=O)(=O)Nc1ccc2nc(C)sc2c1
  37 | 12
Cc1oc(-n2cccc2)c(C#N)c1C(=O)NC1CCCCCC1
  -2 | -1
O=C(c1cnc2c(c1)c(-c1ccccc1)nn2CCO)c1ccccc1O
  18 | 12
CC(C)[C@H](NC(=O)c1ccc(C(C)(C)C)cc1)C(=O)NCc1ccco1
  8 | 1
Cc1ccc(-c2cc(C(=O)OCC(=O)Nc3nc(C)c(Cl)cc3Cl)c3ccccc3n2)o1
  9 | 4
CCCC(=O)Nc1ccc(OCC(O)CNC(C)C)c(C(C)=O)c1 (centres undefined)
  11 | 15
CCCCn1nnnc1COC(=O)c1ccccc1SCc1c(C)noc1C
  15 | 21
COCCNc1nnc(SCC(=O)c2ccc3c(c2)OCO3)s1
  34 | 15
CC(Sc1nc2ccccc2o1)C(N)=O (centres undefined)
  4 | -7

The list continues:
The line under a structure holds: BmaI1 | BmaI1 counterscreen
O=C(CSc1nnc(CN2CCCCC2)o1)Nc1c(Cl)cc(Cl)cc1C(=O)O
  10 | -6
CCC(=O)Nc1ccc(-n2cnnn2)cc1
  10 | 11
C=CCSc1nnc(NC(=O)CCNS(=O)(=O)c2ccccc2)s1
  14 | 6
COc1ccc(CN(C)CN2C(=O)NC3(CCC(C(C)(C)C)CC3)C2=O)cc1 (centres undefined)
  16 | 12
Cc1ccc(-n2nc(C)cc2/N=C/N(C)C)cc1
  8 | 12
O=C(CSc1nnc2n1CCCCC2)N1CCCC1c1ccc2c(c1)OCCCO2 (centres undefined)
  12 | -5
Cc1ccc(CN(C)Cn2nc(-c3c[nH]c4ccccc34)n(-c3ccc(Cl)cc3)c2=S)o1
  26 | 16
CC(C)(C)OC(=O)N1CCCC(C(=O)O)C1 (centres undefined)
  8 | 1
CNC(=S)N(C)CCc1ccc(OC)c(OC)c1
  8 | 19
Cc1cc(C(=O)C(C)Sc2nnc(N)s2)c(C)n1-c1ccc(Cl)cc1 (centres undefined)
  6 | 0
Cn1c(SCC(=O)NCCN2C(=O)S/C(=C\c3ccccc3F)C2=O)nnc1-c1ccco1
  11 | 14
O=c1ccc(S(=O)(=O)N2CCCC2)cn1Cc1c(-c2ccccc2)nc2sccn12
  0 | -2
Cc1noc(C)c1CN1C(=O)NC(Cc2ccccc2)(Cc2ccccc2)C1=O
  4 | 3
O=C1CCCN1C(=O)CSc1nc(-c2ccccc2)cs1
  18 | 4
Nc1nc(CC(=O)c2ccccc2)cs1
  22 | 19
O=c1ccc(C(F)(F)F)cn1Cc1ncc(-c2ccccc2)o1
  17 | 4
CCOC(=O)c1oc2ccccc2c1COC(=O)c1ccc(S(=O)(=O)N2CCCC2)cc1
  5 | 6
Cc1c(C(=O)OCC(=O)N(C)C2(C#N)CCCCC2)oc2ccc(Br)cc12
  17 | 8
O=C1CCC(C(=O)NC2CCCCCC2)=NN1
  18 | 11
CC1=CCC2(CC1)COC(C)(CC(=O)NN)OC2 (centres undefined)
  -28 | -30
O=C(Cn1c(COc2ccc(Cl)cc2)nc2ccccc21)NCc1ccco1
  8 | 10
Clc1ccc2c(c1)CCc1cccnc1C2=C1CCNCC1
  6 | 16
O=C(CCCSc1nnc(Nc2ccccc2F)s1)N1CCOCC1
  16 | 14
NC(=S)Cc1nc2ccccc2[nH]1
  98* | 27*
O=C(CN1CSCC1=O)Nc1nc(SCc2ccccc2)ns1
  8 | -2
COc1cccc(CN(C)C(=O)c2cc(C)oc2C)c1OC
  11 | -2
Cc1occc(=O)c1O
  -6 | -2
NS(=O)(=O)c1ccc(CNC(=O)c2ccccc2C(F)(F)F)cc1
  5 | 4
NC(=O)Nc1ccc(C(=O)OCc2cc(=O)n3cc(Br)ccc3n2)cc1
  11 | 6
COc1ccc(C(CNC(=O)Cc2cc(OC)c(OC)c(OC)c2)N2CCCC2)cc1 (centres undefined)
  12 | 8
CC(C)[C@H](NC(=O)c1ccccc1)C(=O)N1CCN(Cc2ccccc2)CC1
  6 | 14
Cn1c(C(C#N)C(=O)C(Sc2ccccc2)c2ccccc2)nc2ccccc21 (centres undefined)
  5 | 3
Cc1ccc(C)c(C(=O)Cn2nc(C(=O)O)c3ccccc3c2=O)c1
  11 | 12
COCC(=O)OCc1cc(=O)oc2cc(O)ccc12
  14 | 4
CC(OC(=O)C1COc2ccccc2O1)C(=O)N(C)c1ccccc1 (centres undefined)
  0 | 10
O=C(CCNS(=O)(=O)c1ccc2c(c1)OCCO2)Nc1nccs1
  12 | 0
CC(NCc1ccc2c(c1)OCO2)C(=O)N1CCc2ccccc21 (centres undefined)
  14 | 4
N#Cc1c2n(c(=O)[nH]c1=O)CCC2
  12 | 2
COc1cccc(CN(C)S(=O)(=O)c2ccc3c(c2)OCCO3)c1
  13 | 3
CCOc1ncccc1C(=O)N1CCCC1c1nc2ccccc2s1 (centres undefined)
  -13 | 0
O=C1COc2ccc(C(=O)COC(=O)c3cccnc3)cc2N1
  14 | 5
CC(OC(=O)c1ccc2ncsc2c1)C(=O)Nc1ccc(S(N)(=O)=O)cc1 (centres undefined)
  11 | 0
O=C(O)/C=C/c1cnn(-c2ccccc2)c1
  8 | 0
COC(=O)C1=C(C)N(C)C(=S)N(C)C1c1cccc(Br)c1 (centres undefined)
  15 | 5
O=C(Nc1ccc(-n2cnnn2)cc1)C1c2ccccc2Oc2ccccc21
  9 | 10
CCSc1nnc(NC(=O)C2Cc3ccccc3CN2C(=O)c2ccco2)s1 (centres undefined)
  14 | 8
CC(NC(=O)C1=COCCO1)c1ccc(Cl)c(Cl)c1 (centres undefined)
  7 | 5
Cc1cc(C(=O)CN2C(=O)NC3(CCSc4ccc(F)cc43)C2=O)c(C)n1CC1CCCO1 (centres undefined)
  1 | 6
CCN(c1ccc(NC(=O)c2cc(Cl)c3c(c2)OCCCO3)cc1)C(C)C
  46 | -9

Only part of the results is shown (hit frequency here may not be typical).
